# Compound activity from PubChem BioAssay.
# PMP22 txn prim: modulates PMP22 transcription in S16 Schwann cells; S16 Pmp22-F2sN Schwann cells (luciferase reporters placed in the Pmp22 gene), FLuc/NLuc coincidence luminescence, 24 h; Potency, µM (highest dose often 57.5 µM), inactives show at the top dose activity change, negative = inhibition, hits mostly inhibitors; actives 2% (n = 43,000); AID 1508649; active = clear falling dose curves in both reporters; inconclusive = both reporters move, but less clearly or upward; inactive = either reporter flat; the % is the NLuc reporter signal; note: % is set by controls: 0 for no effect and ±100 for the full control effect; some results filed as inactive show a strong effect at the top dose
#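 Luminescent read-out of sequential FLuc and NLuc signals from a reporter embedded in the Pmp22 3' UTR of S16 Schwann cells, taken after 24 h compound exposure at 37C; compounds reducing both signals score as inhibitors of expression.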
# HTT prom inh: HTT promoter inhibition | actives 0.93% (n = 48,000) | Potency, µM (doses to about 57.5 µM), inactives show at the highest dose activity change, negative = inhibition, usual class: inhibitors | HEK293 HTT promoter firefly luciferase reporter (activity 0% = vehicle and -100% = no light), 24 h; active = well fitted inhibition curve with a large enough effect; inconclusive = small, poorly fitted or top-dose-only effect; inactive = no such curve, though single readings can be large or run the other way; note: nearly all actives have a fitted effect of over 50% in size
#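 Firefly luciferase signal from promoter-reporter HEK293 cells was scaled between vehicle (0%) and zero RLU (-100%). Compounds were tested at final concentrations of up to 57.5 uM over 24 h at 37 degrees C. PTC124 at 50 uM final served as control inhibitor.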
# * hit, by the source's call; u = inconclusive; x = not tested or not shown; & = joins results of further samples; [ ] = another dose, or the depositor's remark. Potency is the fitted concentration of half-maximal effect.
# Values run as follows: PMP22 txn prim	HTT prom inh
> O=C(NCc1ccc(Cl)cc1)NCc1noc2ccccc12
→ -10%	19%
> CCOC(=O)c1cc(-c2ccc(OC)cc2)n(CCC(=O)Nc2ccccc2OC)c1C
→ -11%	u
> Fc1ccc(Nc2nc(Nc3ccc(F)cc3)nc(N3CCOCC3)n2)cc1
→ -20%	u
> CCc1ccc(C2CC(=O)Nc3c2c(=O)n(C)c2ncnn32)cc1 (configuration not stated)
→ -13%	-3%
> Cc1ccc(NC(=O)c2cnc(SCC(=O)N3CCCc4ccccc43)n(C)c2=O)cc1
→ 10%	-14%
> Cc1ccc(-n2ncc(C(=O)Nc3ccc4c(c3)OCO4)c2C2CCN(C(=O)OC(C)(C)C)CC2)c(C)c1
→ -29%	-11%
> Cc1ccccc1Cn1c2ccccc2c2cnn(CC(=O)NCCc3ccccc3)c(=O)c21
→ u	12%
> O=C(CSCc1cc(=O)c2cc(F)ccc2[nH]1)Nc1ccccc1Cl
→ -6%	-19%
> Cc1ccc2c(c1)c1c(c(=O)n(-c3cccc(Cl)c3)c(=O)n1C)n2C
→ -1%	-10%
> COc1cccc(CNC(=O)C2CCC(CNS(=O)(=O)c3ccc4c(c3)CCCC(=O)N4)CC2)c1 (configuration not stated)
→ -28%	-2%
> COc1ccc(CCCc2nnc(SCC(=O)Nc3ccc(C)cc3)o2)cc1
→ 7%	u
> CC(=O)c1ccc(NC(=O)c2cc(S(=O)(=O)N3CCCCCC3)cn2C)cc1
→ 8%	-8%
> COc1ccc(N2CCN(c3oc(-c4ccc(COc5cccc(C)c5)o4)nc3C#N)CC2)cc1
→ -20%	-22%
> Nc1c(C(=O)c2ccc(F)cc2)sc(Nc2ccccc2F)c1S(=O)(=O)c1ccc(Br)cc1
→ -10%	u
> Cc1c(C(=O)OC2CCCCC2)[nH]c2c1C(=O)CC(c1ccccc1)C2 (configuration not stated)
→ 13µM*	-12%
> CSc1ncc(Cl)c(C(=O)N(Cc2ccc(C)cc2)C2CCS(=O)(=O)C2)n1 (configuration not stated)
→ u	-6%
> CC(C)(C)NC(=O)N1CCC(C(=O)O)CC1
→ -12%	-9%
> Cc1ccc(NC(=O)Cn2c(=O)c3cc(Cl)ccc3n3nncc23)cc1
→ u	-11%
> CC(C)c1ccc(NC(=O)c2ccc(F)c(S(=O)(=O)N3CCCC3)c2)cc1
→ -20%	u
> COc1ccc(NC(=O)/C=C\C(=O)N(c2ccc(C(C)C)cc2)C(C(=O)NCc2ccco2)c2ccc(F)cc2)cc1 (configuration not stated)
→ u	u

# Next results follow.
# Values run as follows: PMP22 txn prim	HTT prom inh
> Cc1ccc(C)c(CSc2nc3ccncc3n2CC(=O)Nc2ccc(N(C)C)cc2)c1
→ -5%	-18%
> CCN(CC)c1ccc(C(=O)N2CCC(c3c[nH]c4ccccc34)(c3c[nH]c4ccccc34)CC2)cc1
→ 33%	-6%
> Cn1c(=O)c(=O)n(C)c2cc(N3CCOCC3)c(NS(=O)(=O)c3ccc(F)c(Cl)c3)cc21
→ 6%	-9%
> CCOc1ccc(C(=O)OCc2cc(=O)n3nc(C4CC4)sc3n2)cc1
→ u	-21%
> CCc1ccc2oc(-c3cc(NC(=O)c4cc([N+](=O)[O-])ccc4N4CCOCC4)ccc3Cl)nc2c1
→ -17%	11%
> COC(=O)c1nnn(CC(=O)NC(=O)Nc2c(C)cccc2C)c1C(=O)OC
→ -18%	u
> CCOC(=O)c1ccc(NC2=CC(c3ccc(OCC)cc3)N(c3ccc(C(=O)OCC)cc3)C2=O)cc1 (configuration not stated)
→ -1%	-6%
> Cc1ccc(-c2csc(/C(C#N)=C/c3ccccc3Cl)n2)cc1
→ u	36%[activator]
> CCOCCn1c(=NC(=O)c2ccc3c(c2)OCCO3)sc2cc(OCC)ccc21
→ u	-7%
> CCc1ccc(NC(=O)Cn2c(=O)n(CC3CCCO3)c(=O)c3cc(OC)c(OC)cc32)cc1 (configuration not stated)
→ u	-6%
> C=Cc1ccc(Cn2c(C)c(CNCc3ccc(SC)cc3)c(C(=O)O)c2C)cc1
→ 0%	-10%
> Cc1cccc(CN2C(=O)c3ccccc3Sc3ccc(C(=O)NCCCN4CCOCC4)cc32)c1
→ u	-23%
> O=C(Nc1ccc(Br)cc1F)c1cc(S(=O)(=O)NCc2ccc(F)cc2)ccc1F
→ -12%	-32%
> Cc1ccc(Nc2ccc(N3CCN(C(=O)c4ccc([N+](=O)[O-])cc4)CC3)nn2)cc1
→ -5%	-7%
> Cc1ccc(S(=O)(=O)c2cn(Cc3ccc(F)cc3)c3cc(N4CCCC4)c(F)cc3c2=O)cc1
→ 8%	-6%
> O=S(=O)(c1ccccc1)c1nc(-c2cccc(Cl)c2)oc1N1CCOCC1
→ -25%	u
> Cc1ccc(N2C(=O)CCSC23C(=O)N(Cc2ccccc2)c2ccccc23)cc1 (configuration not stated)
→ u	1%
> Cc1ccccc1Cn1c(=O)n(Cc2ccc(Cl)cc2)c(=O)c2cccnc21
→ -47%	-9%
> CC(=O)c1ccc(O)c(C(N)=O)c1
→ x	-4%
> O=C(c1cnc(N2CCOCC2)c2ccccc12)N1CCN(c2ccccc2)CC1
→ u	u

# Continuation:
# Values run as follows: PMP22 txn prim	HTT prom inh
> COc1ccc(NC(=O)c2ccc3oc(=O)c(S(=O)(=O)c4ccc(F)cc4)cc3c2)c(OC)c1
→ 8%	11µM*
> Cc1oc2c(cc(NS(=O)(=O)c3ccc(C(C)C)cc3)c3ccccc32)c1C(=O)OCc1ccccc1
→ u	-8%
> Cc1ccc(-n2ncc3c(NCCc4ccccc4)ncnc32)cc1
→ u	17%
> Cc1ccc(S(=O)(=O)c2cnc(SCC(=O)Nc3ccc4c(c3)OCCO4)[nH]c2=O)cc1
→ -8%	-5%
> COCCNC(=O)c1cnn(-c2cccc(C)c2)c1-n1cccc1
→ -3%	10%
> CC(C[N+](C)(C)C)OC(N)=O (configuration not stated)
→ x	-7%&-22%
> O=C(O)c1ccccc1S
→ x	3%
> CN(c1ccccc1)S(=O)(=O)c1nnc(NC(=O)c2cccs2)s1
→ -5%	-3%
> CCSc1nnc2n(-c3cccc(C)c3)c(=O)c3c4c(sc3n12)CCCC4
→ u	-7%
> Cc1cc2nc(-c3ccc(NC(=O)c4cc5ccccc5o4)cc3)oc2cc1C
→ 8%	44%[activator]
> Cc1ccc(S(=O)(=O)N(CC(O)Cn2c3ccccc3c3ccccc32)c2cccc(C(=O)N(C)C)c2)cc1 (configuration not stated)
→ u	-20%
> CC(=O)c1sc2c(c1C)c(=O)n(-c1ccc(Cl)cc1)c(=O)n2Cc1cc(=O)n2cc(Cl)ccc2n1
→ -14%	-5%
> CCOc1ccc(NC(=O)CCS(=O)(=O)c2ccc(Br)cc2)cc1
→ u	-12%
> COc1cc(/C=C(/C#N)c2nc(-c3cc4ccccc4oc3=O)cs2)ccc1O
→ -13%	18%
> Cc1cc(NC(=O)Nc2nnc(N(C)C3CCCCC3)s2)ccc1Br
→ 8%	-9%
> CCn1c(=N)c(C(=O)NCc2cccnc2)cc2c(=O)n3cc(C)ccc3nc21
→ -6%	-6%
> COc1ccc(N(Cc2cc3ccccc3[nH]c2=O)C(=O)c2cccc(Cl)c2)cc1
→ u	-22%
> COc1ccc2oc(=O)cc(CN3CCN(c4ccc(F)cc4)CC3)c2c1
→ -29%	u
> CCOC(=O)c1c(C)[nH]c(CCC(=O)NCCCN2CCN(c3cc(Cl)ccc3C)CC2)c1C
→ 15µM*	-30%
> CCn1cc2nc(SCc3ccc(F)cc3)n(CCc3ccccc3)c(=O)c2n1
→ u	-31%

# Quoted from the listing.
# Cc1ccc(-n2ncc3c(NCCc4ccccc4)ncnc32)cc1 in HTT prom inh reads 17%
# COc1ccc(NC(=O)c2ccc3oc(=O)c(S(=O)(=O)c4ccc(F)cc4)cc3c2)c(OC)c1 in HTT prom inh reads 11µM*
# COc1ccc2oc(=O)cc(CN3CCN(c4ccc(F)cc4)CC3)c2c1 in PMP22 txn prim reads -29%

# Additional results.
# Values run as follows: PMP22 txn prim	HTT prom inh
> CCOc1ccc(/C=C(\C#N)c2nc(-c3cc4ccccc4oc3=O)cs2)c(OCC)c1
→ -1%	18%
> COc1cc(NC(=O)C2CCN(S(=O)(=O)c3ccc4c(c3)oc(=O)n4C)CC2)cc(OC)c1
→ 0%	-8%
> CCN(CCCNC(=O)CSc1cc(=O)n(C)c2cc(Cl)ccc12)c1cccc(C)c1
→ u	-31%
> COc1cccc(NC(=O)CN2C=NS(=O)(=O)c3ccccc32)c1
→ u	-20%
> CCc1ccccc1NC(=O)CC1NCCNC1=O (configuration not stated)
→ -13%	2%
> COc1ccc(CCNS(=O)(=O)c2cc(-c3cc(C)no3)ccc2C)cc1OC
→ -12%	-17%
> Cc1ccc(N2CC(C(=O)Nc3ccc(Br)cc3)CC2=O)cc1 (configuration not stated)
→ -7%	-20%
> COc1ccc(Cn2c(CO)cnc2SCc2cccc(C)c2)cc1
→ -21%	22%
> COc1ccc(-n2nc3ccc(NC(=O)COc4ccc(C)c(C)c4)cc3n2)cc1
→ -3%	13%
> CCOc1ccccc1CNC(=O)c1cnc2sc(N3CCOCC3)nn2c1=O
→ -23%	0%
> CCOC(=O)C1CCCN(c2nc3c(S(=O)(=O)c4ccc(CC)cc4)nnn3c3ccc(Cl)cc23)C1 (configuration not stated)
→ u	13%
> Cc1cccc(N(C)C(=S)Oc2ccc3ccccc3c2)c1
→ x	74%&25%[activator]
> COc1cc(-c2nc(Cn3nnc(C(=O)Nc4ccccc4)c3C)c(C)o2)cc(OC)c1OC
→ u	-20%
> COc1cc(Nc2nc(SCC(=O)c3ccc(Cl)c(Cl)c3)nc3ccccc23)cc(OC)c1
→ u	-24%
> c1ccc(Nc2c(-c3c[nH]c4ccccc34)nc3ccccn23)cc1
→ 15%	34%[activator]
> Cc1ccc(-c2nc3scc(CCNC(=O)c4cccc(Br)c4)n3n2)cc1
→ u	u
> COc1ccccc1NC(=O)Cn1cc(S(=O)(=O)Cc2ccccc2)c2ccccc21
→ u	-26%
> CCc1ccc2nc(N(Cc3cccnc3)C(C)=O)sc2c1
→ -2%	4%
> CCC(C)NC(=O)Cc1ccc(NC(=O)N2CCCCc3ccccc32)cc1 (configuration not stated)
→ u	-22%
> COc1ccc2c(CNC3CCCCCC3)c(C(=O)O)n(Cc3cccc(F)c3)c2c1
→ 24%	-14%

# Looked up by compound from above (7):
# Values run as follows: PMP22 txn prim	HTT prom inh
> COc1cc(Nc2nc(SCC(=O)c3ccc(Cl)c(Cl)c3)nc3ccccc23)cc(OC)c1
→ u	-24%
> CCc1ccc2nc(N(Cc3cccnc3)C(C)=O)sc2c1
→ -2%	4%
> CC(=O)c1ccc(O)c(C(N)=O)c1
→ x	-4%
> O=S(=O)(c1ccccc1)c1nc(-c2cccc(Cl)c2)oc1N1CCOCC1
→ -25%	u
> O=C(Nc1ccc(Br)cc1F)c1cc(S(=O)(=O)NCc2ccc(F)cc2)ccc1F
→ -12%	-32%
> CCOc1ccc(/C=C(\C#N)c2nc(-c3cc4ccccc4oc3=O)cs2)c(OCC)c1
→ -1%	18%
> CSc1ncc(Cl)c(C(=O)N(Cc2ccc(C)cc2)C2CCS(=O)(=O)C2)n1 (configuration not stated)
→ u	-6%

# The list goes on:
# Values run as follows: PMP22 txn prim	HTT prom inh
> COc1ccc(S(=O)(=O)NCC(c2ccco2)N2CCN(c3ccccc3F)CC2)cc1C (configuration not stated)
→ -25%	-30%
> CCn1cc(S(=O)(=O)c2cc(C)cc(C)c2)c(=O)c2cc(F)c(N3CCCC3)cc21
→ 11%	-14%
> COc1ccc(-c2cc3ccc(O)c(CN4CCOCC4)c3oc2=O)cc1OC
→ 22%	5%
> CCOc1ccc(CNC(=O)C2CCN(C3=NS(=O)(=O)C(c4ccc(C)cc4)=C3CC)CC2)cc1
→ u	u
> Cc1c(Cl)cccc1NC(=O)CC1Oc2ccccc2NC1=O (configuration not stated)
→ -7%	-7%
> Cc1ccc(Cl)cc1-n1ncc2c(NCCC3=CCCCC3)ncnc21
→ u	-33%
> COc1ccc(C2CC(c3c(O)n(C4CCCCC4)c(=O)[nH]c3=O)=Nc3ccccc3S2)cc1 (configuration not stated)
→ 6%	-17%
> CCOc1ccc(S(=O)(=O)Nc2cccc(C)c2)c2cccnc12
→ u	-24%
> COCCCNC(=O)Cn1c(=O)nc(-c2ccccc2)c2ccccc21
→ u	0%
> Cc1ccccc1C(c1c(C)n(C)n(-c2ccccc2)c1=O)c1c(C)n(C)n(-c2ccccc2)c1=O
→ 30%	-9%
> COc1ccc(N2CCN(C(=O)c3c4c(nc5ccccc35)C(=O)N(C3CCCCC3)C4)CC2)cc1
→ -10%	-10%
> COc1ccc(NC(=O)c2oc3ccccc3c2NC(=O)Cc2ccc(F)cc2)c(OC)c1
→ 13µM*	-16%
> O=C(NCc1cccnc1)c1nn(-c2ccc(Cl)cc2)nc1CO
→ 10%	u
> COc1ccc(S(=O)(=O)NCCS(=O)(=O)N2CCN(c3ccccc3F)CC2)cc1
→ u	u
> CN1C(C(=O)Nc2ccc(F)cc2F)=CC(c2cccs2)=NS1(=O)=O
→ -15%	u
> Cc1cc(C)c(S(=O)(=O)NCC(c2ccco2)N2CCN(c3ccccc3)CC2)c(C)c1 (configuration not stated)
→ -47%	-27%
> CCC(=O)C1=C(c2cccc([N+](=O)[O-])c2)N(C(=O)CC)n2c(nnc2C2CCCCC2)S1
→ 8.4µM*	u

# The list is partial; the hit share may differ from the screen's.
